Screens (PubChem BioAssay)
LANA-H2B inh: blocks KSHV LANA binding to histone H2A/H2B. cell-free LANA-H2A/H2B peptide, fluorescence polarization. Q9QR71. 0.6% of 320,000 active. inhibition, % (test concentration not listed); in the data active means inhibition mostly above about 10%, no sharp cut-off; inactive means mostly below about 6.7%;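 further: stock transfer was 7.5 nL into about 10 µL; 0% = median of vehicle wells and 100% = median of positive control wells; one replicate is shown; the record names a cut of 25% in any replicate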
MLL AF4-AF9 inh: inhibitors of human MLL-AF4/AF9 interaction. AlphaScreen, biotin-AF4 peptide binding to FLAG-AF9. inhibition, % at 10 µM. 0.47% of 350,000 active. AID 651704;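 active means every replicate reaching a set inhibition limit, whatever the replicate mean, cut at about 25% in these data; inconclusive means mean inhibition reaches that limit but some replicates miss it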;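 further: 0% = plate neutral control median and 100% = total signal loss; the record names both 10 and 1 µM as test concentration; the first replicate is given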
Target sequence (P42568 whole entry, looked up): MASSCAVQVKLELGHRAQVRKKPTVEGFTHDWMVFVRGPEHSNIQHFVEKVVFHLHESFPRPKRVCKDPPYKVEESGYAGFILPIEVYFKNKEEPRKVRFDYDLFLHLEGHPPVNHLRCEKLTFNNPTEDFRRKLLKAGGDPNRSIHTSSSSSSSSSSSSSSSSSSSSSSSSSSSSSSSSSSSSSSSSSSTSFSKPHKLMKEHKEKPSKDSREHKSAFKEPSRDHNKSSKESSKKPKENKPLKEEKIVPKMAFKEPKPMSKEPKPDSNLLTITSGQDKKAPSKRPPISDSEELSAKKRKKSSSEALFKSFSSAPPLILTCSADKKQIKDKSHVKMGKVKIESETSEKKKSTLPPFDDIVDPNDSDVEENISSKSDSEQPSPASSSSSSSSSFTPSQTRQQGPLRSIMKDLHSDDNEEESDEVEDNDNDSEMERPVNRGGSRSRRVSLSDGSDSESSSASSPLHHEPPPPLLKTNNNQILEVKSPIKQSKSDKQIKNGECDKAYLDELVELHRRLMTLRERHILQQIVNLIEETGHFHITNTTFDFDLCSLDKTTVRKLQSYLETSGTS
A1 inh: inhibitors of the anti-apoptotic protein A1, read as caspase activation; MEF A1-2A-BIM cells, Caspase-Glo 3/7 luminescence, 3 h; percent of clofoctol response, vehicle zero; caspase activation, % (no concentration beside the values); 0.066% of 330,000 active;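 active means over half of replicate activation scores above 10%, or exactly half above 10 with the replicate mean above 10; inconclusive means replicate mean below 10 yet half the replicates above 10; inactive means over half of replicates below 10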;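 further: wells of about 30 µL received 50 nL stock; many hits fall short of the cut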
T cruzi repl: T. cruzi replication inhibition; T. cruzi beta-gal in NIH3T3, luminescence, 90 h; inhibition, % (no concentration beside the values); 1.4% of 300,000 active;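 active means mean inhibition across valid replicates above about 55%, limit read from the data; inconclusive means mean below that limit but half or more replicates reach it; inactive means mean below it, under half of replicates reach it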;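 further: signal also drops with host cell toxicity which is not excluded here; 0% = plate median of DMSO wells and 100% = zero luminescence signal; higher percent means less beta-gal luminescence so fewer parasites; stock transfer was 50 nL into about 50 µL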
RanGTP-Impb inh: inhibitors of RanGTP-importin-beta interaction, primary screen, biochemical, FRET, CFP-Ran, YFP-importin-beta, homogeneous; 1.1% of 300,000 active; inhibition, % (no concentration beside the values); cell-free CFP-Ran/YFP-importin-beta FRET ratio;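 active means most replicates above 15%; inconclusive means exactly half above 15%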;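 further: 0% = DMSO wells and 100% = Ran loaded with GDP instead of GTP; wells of about 40 µL received 100 nL stock; the first replicate is given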
Beta cell apopt: blocks beta cell apoptosis. INS-1E cytokine-induced death, ATP luminescence, 48 h; percent of positive-control rescue, neutral wells zero. protection from apoptosis, % (no concentration beside the values). 0.8% of 300,000 active;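 active means all replicates at 75% or more, or half of them and the mean; inconclusive means half reach 75% but not the mean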;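 further: 0% = cytokine-treated negative control wells and 100% = positive control rescue; higher means more ATP so stronger rescue from cytokine killing; wells of about 40 µL received 100 nL stock; the first replicate is given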
Calb FLC: C. albicans growth modulation with fluconazole; 0.57% of 300,000 active; C. albicans CaCi-2 (fluconazole-resistant clinical isolate) + fluconazole, Alamar Blue growth, 48 h; growth inhibition, % (concentration not given with the values); AID 1979;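 active means most replicates above 75%; inconclusive means exactly half above 75%; inactive means most below 75%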;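 further: all wells also contain fluconazole at 8 µg/ml as a sub-toxic cotreatment; 0% = median of DMSO wells and 100% = median of geldanamycin control wells; wells of about 8 µL received 7.5 nL stock; the first replicate is given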
Vif A3G: inhibitors of Vif binding to APOBEC3G peptide, primary screen, biochemical, TR-FRET, GST-Vif 1-94, biotin-A3G peptide, dose response retest (AID 1117319). TR-FRET GST-Vif / biotin-A3G peptide binding; higher % means a stronger effect; test concentration not given here; strong numbers were not always called active. one-dose inhibition, %; IC50 in µM for titrated hits. 0.57% of 260,000 active;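 active means above the screen mean plus three standard deviations and confirmed in dose response; inconclusive means results disagree or hit not tested in dose response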;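 further: Vif residues 1-94 fused to GST binding biotinylated APOBEC3G peptide 110-148; 0% = full assay without inhibitor and 100% = GST in place of GST-Vif; retest series ran down from 100 µM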
An asterisk follows results filed as active; ? = inconclusive; · = not tested or not shown; & = joins results of further samples. Random draw from the library; overall some 4.3% were active at least once.

SMILES | LANA-H2B inh | MLL AF4-AF9 inh | A1 inh | T cruzi repl | RanGTP-Impb inh | Beta cell apopt | Calb FLC | Vif A3G
Cc1ccccc1C(=O)N[C@H](C(=O)Nc1ccc(Cl)c(Cl)c1)C(C)C | 1.4 | -3.7 | -0.6 | 18.5 | 2.5 | 4.7 | -6.1 | ·
CCCC(=O)c1cc2cc(Cl)ccc2oc1=O | 1.5 | · | 1.5 | -4.1 | -0.8 | -0.3 | -0.1 | 17.3%
COc1ccc(CNC(=O)CSc2nc3nc(C)cc(C)n3n2)cc1 | -7.2 | · | ? | 10.9 | -1.5 | 4.0 | -9.8 | ?
COc1ccc(S(=O)(=O)NCC2CCCO2)cc1C(=O)O (stereo not given) | -2.3 | -2.4 | -0.7 | 9.1 | 1.4 | -7.4 | -10.7 | 28.9%
CCc1ccc(/C(C)=N/NC(=O)c2ccc(-n3cnnn3)cc2)cc1 | -1.8 | ? | -0.3 | · | · | 0.4 | · | 4.9%
CN1CCC(NC(=O)c2cccs2)CC1 | 2.9 | -5.4 | 0.2 | 34.9 | 1.3 | 2.4 | 4.4 | ?
CCn1c(=O)n(CC)c2cc(NC(=O)C(C)c3ccccc3)c(Br)cc21 (stereo not given) | -3.1 | 0.5 | 0.9 | 8.3 | -3.2 | · | -2.6 | ·
CCOc1ccc(N2C(=O)CC(N3CCc4ccccc43)C2=O)cc1 (stereo not given) | -2.6 | · | 1.0 | -9.7 | -2.6 | -2.6 | 21.9 | 4.6%
COc1cc(NC(=O)CCCSc2nc(-c3ccco3)cc(C(F)(F)F)n2)cc(OC)c1OC | -4.7 | · | 0.2 | -2.2 | 1.4 | -2.9 | 1.4 | 13.5%
CCCCN(CC)CCNC(=O)c1cc2c(=O)[nH]c3ccccc3c2n1C | -1.7 | -1.0 | -1.3 | 19.5 | 0.7 | 1.5 | -5.0 | 4.4%
Cc1ccc2c(c1)N(CC(=O)N(Cc1ccc3c(c1)OCO3)CC1CCCO1)C(=O)C(C)O2 (stereo not given) | 5.0 | · | -0.1 | 29.9 | 0.4 | 13.6 | -23.3 | 6.0%
COc1cccc(CC(=O)OC(C)C(=O)Nc2ccc(N3CCOCC3)cc2)c1 (stereo not given) | -6.7 | 1.1 | 0.2 | 0.6 | -3.6 | 3.3 | 8.6 | 12.9%
CCN(c1ccccc1)S(=O)(=O)c1ccc2c(c1)C(C)(C)C(=O)N2C | 0.7 | · | 0.2 | 1.8 | 2.4 | 1.9 | -3.5 | ·
CCOc1ccc(CSCCNC(=S)Nc2ccccc2)cc1 | -2.6 | · | 1.2 | -12.6 | -1.0 | 1.2 | -9.6 | ·
CCC(C)c1c(O)nc(SCC(=O)N2CCOCC2)[nH]c1=O (stereo not given) | -1.7 | · | 0.9 | -18.5 | 2.1 | 0.9 | -3.9 | 66.7%
Cc1ccc(S(=O)(=O)N2CCC(C(=O)OC(C)C(=O)N(C)c3ccccc3)CC2)cc1C (stereo not given) | -6.1 | 1.6 | -0.2 | · | · | 4.2 | · | -5.5%
Cc1ccccc1-c1nc2ccccc2o1 | 3.4 | -4.8 | -1.0 | -6.4 | -4.8 | -20.0 | -12.3 | -0.7%
CN(Cc1ccccc1)C(=O)c1cc(=O)[nH]c2ccccc12 | 4.0 | 3.8 | -0.4 | -4.8 | 2.9 | 0.0 | -1.1 | -9.2%
Cc1ccc(NC(=O)c2scc3c2CCCC3)cc1 | 3.2 | -3.4 | -5.8 | 0.0 | 2.7 | 2.8 | -15.5 | 11.1%
N#Cc1c(-c2ccccc2Cl)c2c([nH]c1=O)-c1ccccc1OC2 | 3.7 | -2.8 | -0.5 | 2.1 | 131.0* | -5.5 | -11.1 | ·
CN(C)Cc1ccccc1Cc1ccccc1 | 1.4 | · | 0.3 | -8.3 | 3.5 | -2.7 | 13.5 | 4.3%
Cc1ccc(-c2[nH]ncc2C(=O)c2ccc(Br)cc2)c(O)c1 | -0.7 | 2.8 | -1.1 | -3.0 | 2.3 | -2.1 | 15.0 | -1.9%
O=C(Nc1ccc(F)cc1)c1cccnc1 | 4.3 | -4.8 | 0.3 | -18.0 | 3.6 | 75.9* | 29.2 | ·
Cc1cccc(CNC(=O)CCn2ccc3cc(S(=O)(=O)N4CCCC4)ccc32)c1 | -2.1 | -5.9 | 0.0 | 10.6 | 1.0 | -8.1 | -6.6 | ·
CCCOc1ccc(C2C(C(=O)c3ccc(C)o3)=C(O)C(=O)N2Cc2ccco2)cc1 (stereo not given) | 3.2 | 1.0 | -0.4 | -15.9 | -3.1 | 5.3 | 5.0 | ·
COc1cccc(Nc2c(F)c(OC)c(F)c(F)c2C(=O)O)c1 | -4.1 | · | -0.4 | · | 1.7 | -6.8 | -1.2 | -2.8%
NC(=O)CC[C@H](NC(=O)c1ccc(F)cc1)C(=O)OCC(=O)NCc1ccc2c(c1)OCO2 | 0.4 | -0.8 | 2.1 | · | · | -1.4 | · | 1.7%
O=C1C(Cc2ccccc2)SC(=Nc2ccccc2)N1c1ccccc1 (stereo not given) | -4.0 | · | 3.3 | 17.0 | -1.7 | -4.8 | -5.2 | 72.9%
Cc1nc2sccn2c(=O)c1S(=O)(=O)NC(C)c1ccccc1 (stereo not given) | -3.6 | -0.5 | · | -9.6 | -4.5 | -2.7 | -10.3 | ·
CCCN1CC(=O)N2Cc3[nH]c4ccccc4c3C[C@H]2C1=O | -4.3 | -5.3 | -1.0 | -2.2 | -1.6 | -1.2 | 2.3 | 3.4%
CCc1nnc(NS(=O)(=O)c2ccc(NC(=S)NC(=O)/C=C/c3ccc(F)cc3)cc2)s1 | · | · | 0.5 | -8.7 | 1.0 | 3.7 | 29.7 | ·
O=C(CCS(=O)(=O)c1cc(Br)cc2c1N(C(=O)C1CC1)CC2)N1CCN(c2ccccn2)CC1 | -5.6 | -4.9 | 2.1 | -3.2 | -3.3 | -2.1 | -6.5 | 4.5%
Cc1onc(-c2c(Cl)cccc2Cl)c1C(=O)N1C(C)CCCC1C (stereo not given) | -4.3 | -0.3 | 1.1 | 0.8 | -1.7 | -0.3 | 4.3 | ·
Nn1cc(-c2ccccc2)nc1SCC(=O)NCCN1C(=O)CSC1=O | 2.1 | · | 0.7 | -8.7 | ? | -6.5 | -7.6 | -1.2%
COc1c(C(C)C)cc(NC(C)=O)cc1C(C)C | 2.6 | · | 0.4 | -0.8 | -15.8 | -1.1 | 0.5 | 1.0%
Cn1ccs/c1=N\C(=O)Nc1ccccc1 | -2.0 | -8.6 | -4.7 | 4.0 | 8.7 | 1.2 | -8.5 | 3.5%
CCOc1ccc(CCNC(=O)CN2C(=O)c3cccnc3Oc3ccc(C)cc32)cc1OCC | -3.9 | 4.9 | 0.1 | 26.5 | 0.9 | -3.4 | 3.9 | -0.1%
COc1ccc(Cl)cc1NC(=O)C/C(C)=N/NC(=O)CCc1ccccc1 | 4.9 | 0.7 | -0.4 | -3.6 | -1.3 | -5.1 | 1.1 | ·
CC1(C)CC(=O)C=C(Nc2cccc(O)c2)C1 | 3.7 | · | 0.3 | -9.9 | 44.6* | -2.9 | -2.0 | 5.9%
CC(C)COC(=O)CCn1[nH]c(=O)c2ccccc2c1=O | -6.4 | · | -0.1 | -6.5 | 5.8 | -0.2 | -20.2 | 18.7%
O=C(CCc1ccccc1)NNC(=O)c1cc(Cl)ccc1O | 3.6 | 4.3 | 0.7 | -0.3 | ? | -6.8 | 4.2 | ·
C[C@@H]1O[C@@H](O[C@H]2[C@H](Oc3cc(O)c4c(c3)O[C@H](c3ccc(O)cc3)CC4=O)O[C@H](CO)[C@@H](O)[C@@H]2O)[C@H](O)[C@H](O)[C@H]1O | -9.8 | -0.4 | 0.3 | -20.2 | 2.8 | -1.1 | · | 2.8%
COc1ccc(C(=O)NNC(=O)C2=NN(c3ccccc3)C(=O)CC2)cc1 | -0.3 | 1.5 | -0.5 | -4.0 | 4.9 | 0.9 | 3.5 | 4.6%
O=C(Oc1ccc(C(=S)N2CCOCC2)cc1)c1ccccc1[N+](=O)[O-] | 1.2 | 1.5 | 1.0 | -6.0 | 0.7 | -7.3 | 1.4 | ·
Cn1c(=O)[nH]c(=O)c2c1nc(SCC(=O)O)n2CCCc1ccccc1 | 2.9 | 1.9 | 0.2 | -4.5 | 0.0 | -4.2 | -6.6 | -5.8%
COCCN(C(=O)COC(=O)/C=C/c1ccc(C)o1)c1c(N)n(Cc2ccccc2)c(=O)[nH]c1=O | -1.1 | -7.5 | 0.6 | -6.3 | 8.5 | -4.4 | -2.5 | 10.9%
CCC(C)NC(=O)CCn1c(-c2ccc(F)cc2)cc(C(C)=O)c1C (stereo not given) | 1.8 | -2.7 | 0.0 | -13.8 | -2.7 | 0.9 | 0.6 | -2.0%
O=C(Nc1cccc(S(=O)(=O)N2CCOCC2)c1)c1ccc(N2CCOCC2)c([N+](=O)[O-])c1 | -3.1 | 4.2 | 0.4 | 14.4 | 0.4 | -0.1 | -4.6 | 7.4%
CC(C)NC(=O)N(C)C[C@H]1Oc2ccc(NC(=O)C3CCCCC3)cc2C(=O)N([C@H](C)CO)C[C@@H]1C | 0.6 | 0.9&-3.2 | 0.3 | · | · | 0.8 | · | ·
CC(C)(C)OC(=O)NCc1ccc(CNC(=O)c2nc[nH]c2C(=O)N2CCc3ccccc3C2)cc1 | 8.5 | 3.0 | 0.7 | · | · | 0.9 | · | ·
COc1ccc(OC)c(NC(=O)CSc2nnc(Cc3cccn3C)n2CCc2ccccc2)c1 | -1.5 | · | 0.7 | -1.0 | 5.2 | 1.4 | 8.4 | ?
CC12C=CC3(CN(Cc4ccccc4)C(=O)C3C1C(=O)NC1CC1)O2 (stereo not given) | -11.2 | · | 0.3 | -27.0 | -3.7 | 4.3 | -9.8 | 4.1%
Cc1[nH]c(=S)[nH]c(=O)c1Cc1ccccc1 | -1.5 | 2.7 | -0.2 | 0.0 | -1.4 | -1.2 | -6.8 | 6.0%
COC(=O)c1nn(-c2ccc(OC)cc2)c(=O)cc1Sc1ccc(C)cc1 | -9.8 | 1.7 | 3.4 | -8.7 | -0.5 | 1.3 | 3.9 | 11.6%
CC1(C)Cc2cccc(OCC(=O)NCc3ccccc3)c2O1 | · | -1.3 | · | -7.0 | 2.1 | · | -4.1 | ·
CCOc1ncccc1C(=O)N1CCN(Cc2ccc3c(c2)OCO3)CC1 | -0.2 | · | 0.6 | 1.1 | 1.4 | -5.3 | 0.8 | 3.0%
CN(CC(=O)Nc1ccc(F)cc1)C(=O)COC(=O)c1cc(S(=O)(=O)N(C)C)ccc1N1CCCC1 | 3.6 | -7.1 | 0.3 | -0.5 | 2.9 | -0.2 | · | 1.0%
CC(=O)c1c(C)[nH]c(C(=O)OCC(=O)c2ccc(C)s2)c1C | -306.3 | 1.3 | 1.1 | · | · | -2.6 | · | -8.0%
CCOC(=O)c1cnc(-n2[nH]c(C)c(Cc3ccccc3)c2=O)[nH]c1=O | -15.9 | -2.0 | -0.5 | -1.0 | ? | -0.8 | 1.3 | ·
CCCC(=O)Nc1ccc2c(c1)nc1n2CCN(C2CCCCC2)C1 | -0.2 | -0.4 | -0.1 | · | · | -6.3 | -4.8 | 26.1%
COc1cc(C2NC(=O)NC(C)=C2C(=O)OCc2ccc(C)cc2)cc(OC)c1O (stereo not given) | 2.1 | · | -0.3 | 10.0 | 66.2* | -3.4 | -7.6 | 8.2%
N#Cc1c(Cl)nc(N/N=C/c2ccccc2)c(Cl)c1Cl | -1.5 | 7.8 | 2.0 | -30.1 | 3.0 | 6.2 | 2.9 | ·
